Screening data deposited in PubChem by several laboratories.
RanGTP-Impb inh = disruptors of Ran-importin-beta complex formation – biochemical, FRET, CFP-Ran, YFP-importin-beta, homogeneous, primary screen; cell-free CFP-Ran/YFP-importin-beta FRET ratio; inhibition, % (concentration not given with the values); actives 1.1% (n = 300,000); AID 2216;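 active = most replicates above 15%; inconclusive = exactly half above 15%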;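 also: 0% = DMSO wells and 100% = Ran loaded with GDP instead of GTP; wells of about 40 µL received 100 nL stock; the first replicate is given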
Vif A3G = inhibitors of Vif binding to APOBEC3G peptide, primary screen, biochemical, TR-FRET, GST-Vif 1-94, biotin-A3G peptide, dose response retest (AID 1117319); TR-FRET GST-Vif / biotin-A3G peptide binding; higher % means a stronger effect; test concentration not given here; strong numbers were not always called active; inhibition, %; hits with a dose series show IC50 in µM; actives 0.57% (n = 260,000);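 active = above the screen mean plus three standard deviations and confirmed in dose response; inconclusive = results disagree or hit not tested in dose response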;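 also: Vif residues 1-94 fused to GST binding biotinylated APOBEC3G peptide 110-148; 0% = full assay without inhibitor and 100% = GST in place of GST-Vif; retest series ran down from 100 µM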
MLL AF4-AF9 inh = inhibitors of human MLL-AF4/AF9 interaction | AID 651704 | inhibition, % at 10 µM | P42568 | AlphaScreen, biotin-AF4 peptide binding to FLAG-AF9 | actives 0.47% (n = 350,000);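 active = every replicate reaching a set inhibition limit, whatever the replicate mean, cut at about 25% in these data; inconclusive = mean inhibition reaches that limit but some replicates miss it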;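 also: 0% = plate neutral control median and 100% = total signal loss; the record names both 10 and 1 µM as test concentration; the first replicate is given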
Target sequence (P42568 whole entry, looked up): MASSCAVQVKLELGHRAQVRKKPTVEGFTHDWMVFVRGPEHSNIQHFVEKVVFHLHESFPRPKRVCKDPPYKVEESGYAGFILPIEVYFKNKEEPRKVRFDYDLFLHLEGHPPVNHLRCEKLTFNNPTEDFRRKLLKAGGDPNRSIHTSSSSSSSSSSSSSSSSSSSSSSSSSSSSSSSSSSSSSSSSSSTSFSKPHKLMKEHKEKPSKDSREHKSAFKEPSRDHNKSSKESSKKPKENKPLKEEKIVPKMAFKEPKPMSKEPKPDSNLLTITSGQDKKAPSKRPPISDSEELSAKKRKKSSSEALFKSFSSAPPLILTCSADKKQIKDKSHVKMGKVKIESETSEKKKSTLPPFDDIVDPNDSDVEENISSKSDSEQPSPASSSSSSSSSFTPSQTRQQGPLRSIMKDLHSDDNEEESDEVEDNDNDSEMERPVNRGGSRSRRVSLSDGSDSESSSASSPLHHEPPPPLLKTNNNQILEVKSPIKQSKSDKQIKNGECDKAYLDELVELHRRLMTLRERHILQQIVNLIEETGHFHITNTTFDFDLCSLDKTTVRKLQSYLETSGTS
Bfl-1 A1 inh = inhibitors of the anti-apoptotic protein A1, read as caspase activation. caspase activation, % (test concentration not listed). AID 2462. actives 0.066% (n = 330,000). MEF A1-2A-BIM cells, Caspase-Glo 3/7 luminescence, 3 h; percent of clofoctol response, vehicle zero;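 active = over half of replicate activation scores above 10%, or exactly half above 10 with the replicate mean above 10; inconclusive = replicate mean below 10 yet half the replicates above 10; inactive = over half of replicates below 10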;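 also: wells of about 30 µL received 50 nL stock; many hits fall short of the cut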
Calb FLC = affects C. albicans growth with fluconazole; AID 1979; growth inhibition, % (concentration not given with the values); actives 0.57% (n = 300,000); C. albicans CaCi-2 (fluconazole-resistant clinical isolate) + fluconazole, Alamar Blue growth, 48 h;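 active = most replicates above 75%; inconclusive = exactly half above 75%; inactive = most below 75%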;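 also: all wells also contain fluconazole at 8 µg/ml as a sub-toxic cotreatment; 0% = median of DMSO wells and 100% = median of geldanamycin control wells; wells of about 8 µL received 7.5 nL stock; the first replicate is given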
rRNA inh HTS = inhibitors of bacterial rRNA selective over humanized ribosomes; E. coli WT GFP vs humanized-ribosome RFP mutants, fluorescence, 24 h; stronger effect = lower value; DMSO median 0, no signal -100; GFP signal change (wild-type ribosome), % (concentration not given with the values); actives 1.6% (n = 350,000); AID 720706;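 active = significant combined selectivity score with lowered wild-type GFP, culture density cut under 30%, mutant RFP and density less affected; inactive = any of these conditions unmet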; also: one replicate is shown; some compounds called inactive have numbers as strong as hits
T cruzi repl = blocks replication of Trypanosoma cruzi; inhibition, % (test concentration not listed); actives 1.4% (n = 300,000); T. cruzi beta-gal in NIH3T3, luminescence, 90 h;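 active = mean inhibition across valid replicates above about 55%, limit read from the data; inconclusive = mean below that limit but half or more replicates reach it; inactive = mean below it, under half of replicates reach it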;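 also: signal also drops with host cell toxicity which is not excluded here; 0% = plate median of DMSO wells and 100% = zero luminescence signal; higher percent means less beta-gal luminescence so fewer parasites; stock transfer was 50 nL into about 50 µL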
Beta cell apopt = blocks beta cell apoptosis; INS-1E cytokine-induced death, ATP luminescence, 48 h; percent of positive-control rescue, neutral wells zero; protection from apoptosis, % (no concentration beside the values); actives 0.8% (n = 300,000);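 active = all replicates at 75% or more, or half of them and the mean; inconclusive = half reach 75% but not the mean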;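 also: 0% = cytokine-treated negative control wells and 100% = positive control rescue; higher means more ATP so stronger rescue from cytokine killing; wells of about 40 µL received 100 nL stock; the first replicate is given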
rRNA inh HTS OD600 = recorded beside rRNA inh HTS, whose call it bears; OD600 change, %; measured here: OD600 growth;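 optical density of the mix in the first replicate; 0 = DMSO median and -100 = no signal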
rRNA inh HTS RFP = further read-out of rRNA inh HTS, marked with its call; RFP signal change, %; measured here: RFP humanized mutant strains;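 first replicate; 0 = DMSO median and -100 = no signal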
Numbers without * were called inactive; u = inconclusive; x = no result given. Some of the compounds tested; the hit share may differ from the screen's.

structure,RanGTP-Impb inh,Vif A3G,MLL AF4-AF9 inh,Bfl-1 A1 inh,Calb FLC,rRNA inh HTS,rRNA inh HTS OD600,rRNA inh HTS RFP,T cruzi repl,Beta cell apopt
Nc1cc2c(cc1C(=O)c1ccccc1)OCCO2,u,-0.9%,x,0.2,-5.1,x,x,x,2.4,2.8
CCCn1c(Nc2cccc(OC)c2)nc2ccccc21,-0.8,1.7%,-2.4,-0.1,5.4,7.1,1.2,3.0,-14.0,2.6
CC(=O)Oc1ccc2c(=O)c(N3C(=O)c4ccccc4C3=O)c(C)oc2c1C,-3.4,-3.2%,1.7,0.3,-7.7,-14.1,-8.8,-2.1,-0.9,-1.0
c1ccc(Nc2nnc(-c3cccnc3)s2)cc1,5.5,x,-0.7,-7.8,-3.2,13.8,23.9,-1.7,-7.2,x
CN(Cc1cnn(C)c1)S(=O)(=O)c1cccc([N+](=O)[O-])c1,-1.7,8.3%,-1.2,0.2,0.8,18.4,16.7,0.6,11.7,-3.5
COc1ccccc1N1CCN(C(=O)CSc2nnc3c4ccccc4n(CC(=O)O)c3n2)CC1,-1.5,8.1%,-3.1,0.5,5.1,8.5,7.6,4.1,-5.7,-0.2
CC(=O)c1cccc(NC(=O)C2CCN(C(=O)c3ccccc3Cl)CC2)c1,0.4,x,-1.0,-0.3,-4.7,0.0,1.1,1.5,-0.3,x
O=C(Nc1ccc(C(=O)O)cc1)/C(=C\C=C\c1ccccc1)NC(=O)c1ccccc1Cl,-1.2,0.2%,3.4,-0.4,17.8,-8.0,2.4,6.5,-8.2,0.6
N#CCc1nnc2n1-c1ccccc1CCC2,1.9,27.5%,x,0.1,21.4,x,x,x,-0.3,-5.3
O=C(NNC(=O)c1ccc([N+](=O)[O-])cc1)NC1CCCCC1,2.2,x,-3.5,0.2,5.1,5.5,7.7,-0.3,6.0,0.8
COCCNC(=S)N(CCc1c(C)[nH]c2ccc(Cl)cc12)Cc1cccnc1,u,-6.9%,6.5,-0.2,x,-36.6,-48.5,-8.6,41.6,-1.5
O=C(Cn1nnc2ccccc2c1=O)NCCc1ccccc1,-1.8,x,-3.8,0.1,9.9,x,x,x,-0.8,-1.1
N#CC1=C(N)OC2=C(C(=O)CCC2)C12C(=O)N1CCCc3cccc2c31 (stereo not given),1.4,u,x,-0.4,-2.3,x,x,x,3.9,-10.5
O=C(COC(=O)/C=C/c1cccs1)Nc1ccc2ccccc2c1,1.9,x,x,0.5,16.9,x,x,x,-15.4,0.3
COC(=O)c1sc2nc(C)nc(SCC(=O)C(C)(C)C)c2c1C,-1.1,x,-1.3,-0.4,12.7,1.0,9.7,1.5,21.0,13.0
O=[N+]([O-])c1ccc(/C=N/Nc2nc(NCc3ccccc3)nc(N3CCOCC3)n2)cc1,2.4,-0.8%,-0.5,3.0,17.4,12.2,23.1,-0.8,0.4,1.0
CCN(Cc1ccncc1)C(=O)CCc1nnc(CCc2ccccc2OC)o1,1.6,3.7%,-0.5,1.0,-12.0,6.9,0.9,-3.9,-1.4,2.2
COc1cc(/C=C/C(=O)OCC(=O)NCc2ccco2)ccc1O,u,x,-1.9,0.2,1.0,-1.5,-12.9,-0.9,2.3,-0.6
CCOC(=O)Cn1c(=O)n(Cc2ccccc2)c(=O)c2cccnc21,-2.8,-13.4%,0.4,0.5,1.4,0.5,-1.1,0.4,24.7,6.5
CN(Cc1cccnc1)Cc1cn[nH]c1-c1ccc(-c2ccccc2)cc1,1.6,u,2.9,0.2,u,-17.2,-16.0,18.6,39.3,-0.7
COc1ccc2cc3cc(C(=O)N4CC(C)CC(C)C4)oc3nc2c1 (stereo not given),0.2,x,x,0.2,-3.5,x,x,x,29.9,3.0
O=C(NC(=S)Nc1ccccn1)c1cncc(Br)c1,-2.3,x,-2.5,0.5,2.2,4.3,7.9,0.9,-7.0,-3.9
CCn1c(SCC(=O)Nc2nonc2C)nnc1-c1ccco1,2.1,4.8%,x,0.1,0.7,x,x,x,-13.2,-0.4
COc1ccc(/C=N/NC(=O)c2nc(-c3ccccc3)n(-c3ccccc3)n2)cc1OC,0.6,-5.6%,-1.6,0.1,8.5,9.8,20.2,2.1,-5.6,1.7
CC(C)CN(C(=O)COC(=O)COc1ccc2c(c1)CCC2)c1c(N)n(Cc2ccccc2)c(=O)[nH]c1=O,0.8,-2.9%,-11.4,2.0,-9.6,1.1,6.1,-0.9,-6.9,-4.0
CCc1nn2c(=O)c(S(=O)(=O)Nc3ccc(C(C)C)cc3)c(C)nc2s1,x,x,0.2,0.0,x,10.1,-1.6,-0.3,x,-9.5
CN1CCN(c2ccc(NC(=O)CSc3ccccc3)cc2F)CC1,4.9,-2.8%,x,-0.1,-16.9,x,x,x,50.6,6.1
COc1ccc(S(=O)(=O)N2CCOCC2)cc1NC(=O)Cc1c(F)cccc1Cl,x,-12.3%,-2.0,0.9,x,6.0,9.7,1.7,x,5.1
CCn1cc(Cl)c(C(=O)NNC(=O)CCn2ccc([N+](=O)[O-])n2)n1,2.7,-1.2%,0.7,0.9,-8.0,-3.4,10.5,-3.4,-3.5,0.1
C(=N\Nc1nc2ccccc2s1)/c1ccccn1,5.0,-7.2%,1.8,-7.8,-2.7,-29.5*,-12.1*,-0.4*,38.9,x

Next section
structure,RanGTP-Impb inh,Vif A3G,MLL AF4-AF9 inh,Bfl-1 A1 inh,Calb FLC,rRNA inh HTS,rRNA inh HTS OD600,rRNA inh HTS RFP,T cruzi repl,Beta cell apopt
CCN1C(=O)[C@H]2[C@@H](c3ccc(C)cc3)N3C(=O)N(c4ccc(C)cc4)C(=O)[C@@]3(CC)[C@H]2C1=O,-2.3,x,-1.1,-0.5,-5.6,2.7,6.4,-1.2,-18.2,-8.1
Cc1sc2ncnc(N/N=C/c3cccc(O)c3)c2c1C,0.3,2.7%,x,1.6,5.2,x,x,x,2.3,-3.0
COc1cccc(CNC(=O)CSC(=S)N2CCCC2)c1,0.7,-2.5%,-1.5,1.7,6.1,-4.1,-0.2,-3.7,-0.4,-0.5
COc1ccc(NC(=O)CN2CCCCCC2)cc1OC,-1.4,x,1.6,-0.7,-9.4,6.3,7.7,-0.6,3.8,-2.0
Clc1ccc(-n2nnnc2CN2CCCCC2)cc1Cl,-0.4,-3.9%,x,x,15.1,x,x,x,20.9,-9.5
COc1ccc([N+](=O)[O-])cc1-c1nc2ccccc2nc1-c1ccccc1,-2.4,-8.4%,13.4,0.5,0.6,-3.6,-0.3,0.7,2.9,-1.8
Cc1ccc(-n2c(Cl)c(Cl)[nH]c(=O)c2=O)cc1,-1.6,x,x,-0.9,-4.3,x,x,x,2.1,-3.9
CC#CCN1c2ccccc2[C@]23C[C@@H](C(=O)OC)N(C(=O)c4cc(C)oc4C)C2=NC(C(=O)OC)=C(C(=O)OC)[C@H]13,2.6,x,8.5,0.1,20.9,6.6,11.8,-7.2,2.8,0.9
Cc1ccc(S(=O)(=O)CC(=O)Nc2nccs2)cc1,-5.1,-3.5%,-0.3,0.0,-4.7,9.2,10.6,-1.7,-8.2,x
O=C(CSc1nc(O)cc(=O)[nH]1)Nc1ccc2c(c1)CCC2,u,5.2%,x,0.3,-3.6,x,x,x,-20.3,-12.3
COC(=O)CCc1nc2ccccc2[nH]c1=O,-2.1,-8.7%,x,0.7,-15.4,x,x,x,-10.2,-1.0
Cc1ccc(NC(=O)c2ccc3c(c2)NC(=O)CS3)nc1,5.1,-0.1%,8.4,-0.6,x,4.2,6.5,-1.6,9.0,-0.2
CCOc1ccccc1OCCCC(=O)N1CCN(S(=O)(=O)c2ccc(C)cc2C)CC1,x,-2.1%,-21.4,0.8,x,-6.5,-5.2,3.1,x,-1.8
CC(C)(CO)CNC(=O)CCc1nnc(Cc2ccc(-c3ccccc3)cc2)o1,-3.7,-13.3%,0.0,-1.1,29.3,-10.0,-8.5,2.3,-7.0,-2.2
C=CCNC(=S)N1CCN(c2ncc(C(F)(F)F)cc2Cl)CC1,5.7,-1.6%,-0.2,0.4,11.6,-21.3,-34.5,-6.0,0.3,-1.8
Clc1ccccc1Cn1nnc2c(N3CCCC3)ncnc21,-5.0,u,x,0.1,-31.4,x,x,x,15.9,6.1
COc1ccc(-c2cc(C(=O)Nc3cccnc3)no2)cc1OC,1.1,-0.4%,1.5,-1.0,14.2,-5.2,3.8,-1.2,0.0,7.9
NC1=C([N+](=O)[O-])C(c2ccc(F)cc2)C2=C(CCCC2=O)O1 (stereo not given),1.8,-3.8%,0.5,-0.9,8.1,-2.4,1.3,-2.3,-23.7,-6.2
COc1cccc(-c2cc(C(F)(F)F)nc(-n3cccn3)n2)c1,-2.0,1.9%,x,-0.8,3.8,x,x,x,9.4,-1.5
Cc1cc(C(=O)NCCN2CCCCC2C)n(-c2ccccc2)n1 (stereo not given),3.4,0.2%,-7.5,0.4,-7.3,15.9,8.4,1.0,-8.5,0.4
Cc1cccc(/C=C/c2nc3ccccc3c(=O)n2Cc2ccccc2)c1,-2.9,x,15.3,-0.2,17.2,-8.6,-0.6,1.5,47.1,22.1
O=C(NCc1cccs1)c1ccc(CS(=O)Cc2cccc(Cl)c2)o1 (stereo not given),-3.8,x,0.7,1.1,-1.1,-27.3,-23.9,-2.7,7.9,-1.4
Cc1nonc1C(=O)N/N=C/c1ccncc1,-3.0,18.3%,-0.2,-5.7,u,5.2,12.9,-0.7,-3.8,-1.1
O=c1oc(-c2ccccc2[N+](=O)[O-])nc2ccccc12,-2.3,-2.1%,x,0.6,-2.7,x,x,x,2.0,-6.8
CCOc1ccc(OCCCC(=O)N2CCN(S(=O)(=O)c3ccc(Cl)cc3)CC2)cc1,-1.6,4.2%,4.3,0.7,-0.5,-7.3,-11.1,2.0,2.1,2.5
CCN(C(=O)Cn1nc(C(=O)O)c2ccccc2c1=O)C1CCCCC1,-4.6,-7.1%,-2.8,0.2,-0.6,-7.2,12.4,-2.9,-4.1,0.8
COC(=O)Cc1nc(Nc2ccccc2)sc1C,4.5,-6.7%,-2.3,0.7,-4.5,6.0,10.0,1.6,2.6,1.3
Cc1ccc(-n2ncc3c2ncn2nc(-c4ccco4)nc32)c(C)c1,0.4,31.9%,x,0.1,12.1,x,x,x,-14.2,-1.5
COc1ccc(C(C)(C)C)cc1NC(=O)c1ccoc1C,-2.1,-4.5%,x,-0.2,-1.9,x,x,x,6.4,5.2
CCOC(=O)c1cnc(-c2ccccc2)nc1C(F)(F)F,2.3,-3.1%,-0.4,-0.1,-8.8,10.1,-2.1,-2.5,8.9,1.0
Cc1cc(C)n(C(=O)/C(C#N)=C/N(C)C)n1,3.0,-7.1%,-4.0,-0.1,-0.3,18.4,9.8,2.2,-11.4,-4.6
